# D2 PAM = human D2 receptor positive allosteric modulation. P14416. DiscoveRx D2 beta-arrestin cells, luminescence, 90 min; 100% = 57 uM dopamine signal. potentiation, % (no concentration beside the values). 0.23% of 360,000 active; active = potentiation of 50% or more; inconclusive = 30% to 50%; inactive = 30% or less;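 note: compound concentration not given in the record; tested on top of an EC20 dose of dopamine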
#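 PathHunter D2 cells, attached overnight at 37 deg C, received compound in DMSO plus dopamine at EC20 (50 nM final) for 90 min at 37 deg C. Beta-arrestin recruitment was read as luminescence after 1 h with detection reagent at ambient temperature.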
# TRPML1 agonist = activates the human TRPML1 channel; Q9GZU1; TRPML1-expressing cells, Ca2+ dye fluorescence, FDSS; host cell line not named in the record; reference of the full effect not given here; activation, % (test concentration not listed); 0.12% of 410,000 active; AID 624414; in the data active = activation above about 50%; inconclusive = about 30% to 50%; inactive = below about 30%; note: 0% is about no effect; the text of the record puts the active cut at 80%
#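 Calcium fluorescence on an FDSS kinetic reader gave the read-out. Tet-induced TRPML1-DL cells were plated overnight, dye-loaded (Ca8 with quencher, 45-90 min, room temperature, dark), then read 110 s after compound addition, and again 110 s after 4uM final 54-4 (EC80).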
# Six1-Eya2 blk = blocks human Six1 binding to Eya2. AlphaScreen GST-Six1/His-Eya2 binding, biochemical; stronger effect = lower value; control for the full effect not named in the record. activity change, % (concentration not given with the values). 0.56% of 360,000 active. AID 651725; in the data active = activity change below about -65%; inconclusive = about -30% to -65%; inactive = above about -30%; note: % is set by controls: 0 for no effect and ±100 for the full control effect
#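 GST-Six1 + His-Eya2 (5X stock: 250/500 nM); Tris pH 8.0, 300 mM NaCl, 0.05% BSA, 0.02% Tween 20; GSH donor/Ni acceptor beads; 1 h 37 °C dark; AlphaScreen readout.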
# TRPV1 potentiator = human TRPV1 potentiation | 0.02% of 320,000 active | Q8NER1 | potentiation, % at 8.33 µM | TRPV1-expressing cells, Fluo-8 calcium influx, capsaicin EC20 potentiation; host cell line not named in the record; control for the full effect not named in the record; active means potentiation above 80%; inconclusive means 30% to 80%; inactive means below 30%; note: 0% is about no effect
# Target sequence (Q8NER1 whole entry, looked up): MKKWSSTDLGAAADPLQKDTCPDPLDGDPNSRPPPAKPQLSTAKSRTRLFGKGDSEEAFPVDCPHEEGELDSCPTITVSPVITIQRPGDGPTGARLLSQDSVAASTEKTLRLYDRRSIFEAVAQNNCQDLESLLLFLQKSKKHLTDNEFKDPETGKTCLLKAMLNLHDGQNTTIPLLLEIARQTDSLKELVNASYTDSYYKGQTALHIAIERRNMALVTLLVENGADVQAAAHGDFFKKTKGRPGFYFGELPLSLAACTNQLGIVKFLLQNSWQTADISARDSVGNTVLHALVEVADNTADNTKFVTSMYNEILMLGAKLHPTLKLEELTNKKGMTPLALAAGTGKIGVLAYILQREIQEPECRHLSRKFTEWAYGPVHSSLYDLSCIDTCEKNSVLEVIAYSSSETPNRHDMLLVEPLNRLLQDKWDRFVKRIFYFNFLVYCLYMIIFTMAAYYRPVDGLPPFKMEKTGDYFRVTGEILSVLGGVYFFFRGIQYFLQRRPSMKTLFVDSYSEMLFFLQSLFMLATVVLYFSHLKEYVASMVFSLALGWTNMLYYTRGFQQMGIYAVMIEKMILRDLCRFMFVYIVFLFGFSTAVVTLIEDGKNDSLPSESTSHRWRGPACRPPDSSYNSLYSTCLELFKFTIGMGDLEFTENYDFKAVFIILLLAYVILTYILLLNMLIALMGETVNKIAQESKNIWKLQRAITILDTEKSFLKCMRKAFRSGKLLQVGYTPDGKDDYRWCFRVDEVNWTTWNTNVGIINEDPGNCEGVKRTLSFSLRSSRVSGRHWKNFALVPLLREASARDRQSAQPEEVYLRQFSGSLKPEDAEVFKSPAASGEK
#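 Fluo-8 calcium influx in TRPV1-expressing cells, kinetic read (ex 480/em 520 nm). Compound added and read 3 min for agonist activity, followed by capsaicin at EC20 final and 2 min further read for enhancement.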
# TRPML1 blocker = inhibitors of human TRPML1 channel; TRPML1-inducible cells, Ca2+ dye fluorescence, FDSS; stronger effect = lower value; inhibition of EC80 agonist-evoked calcium signal; activity change, negative = inhibition, % (no concentration beside the values); 0.02% of 390,000 active; AID 624415; in the data active means activity change below about -50%; inconclusive means about -30% to -50%; inactive means above about -30%;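 note: stimulus is agonist 54-4 at its EC80 concentration; % is set by controls: 0 for no effect and ±100 for the full control effect; compound concentration not given in the record; the text of the record puts the active cut at -80%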
#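 Tet-induced TRPML1-DL cells loaded with Ca8 no-wash calcium dye were read kinetically on FDSS. Compound addition was followed by EC80 agonist 54-4 (4 uM final); inhibition was read over 110 s.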
# CtBP-E1A inh = blocks the CtBP interaction with E1A; AlphaScreen GST-E1A/His-CtBP binding, 1536-well; stronger effect = lower value; control for the full effect not named in the record; activity change, % (test concentration not listed); 0.49% of 340,000 active; in the data active means activity change below about -65%; inconclusive means about -30% to -65%; inactive means above about -30%; note: % is set by controls: 0 for no effect and ±100 for the full control effect; compound concentration not given in the record
#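 Steps: dispense buffer (Tris pH 8.0, NaCl 300 mM, TCEP 1 mM, BSA, Tween 20); add 5X protein mix (GST-E1A, His-CtBP, 125 nM each); pin 23 nL compound; 2 h at 37 °C, dark; add 5X beads (50 ug/mL); 1 h; read.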
# * marks the source's active call; other numbers are inactive results; u = inconclusive; x = not tested or not shown.
# The opening three compounds as a preview:
SMILES,D2 PAM,TRPML1 agonist,Six1-Eya2 blk,TRPV1 potentiator,TRPML1 blocker,CtBP-E1A inh
O=C(Nc1ccc(Cl)cc1)OCc1cn(-c2ccc(Cl)cc2)nn1,-6.2,1.9,7.1,21.0,15.2,11.9
CSc1ccc(/C=C/C(=O)c2ccc(O)cc2)cc1,-9.5,1.3,3.9,-1.1,26.1,-12.8
O=C(NC1CCN(C(=O)NCc2ccccc2)CC1)c1ccco1,5.2,-1.1,3.2,29.9,-13.5,9.6

# Main list (from the top)
SMILES,D2 PAM,TRPML1 agonist,Six1-Eya2 blk,TRPV1 potentiator,TRPML1 blocker,CtBP-E1A inh
O=C(Nc1ccc(Cl)cc1)OCc1cn(-c2ccc(Cl)cc2)nn1,-6.2,1.9,7.1,21.0,15.2,11.9
CSc1ccc(/C=C/C(=O)c2ccc(O)cc2)cc1,-9.5,1.3,3.9,-1.1,26.1,-12.8
O=C(NC1CCN(C(=O)NCc2ccccc2)CC1)c1ccco1,5.2,-1.1,3.2,29.9,-13.5,9.6
COc1ccccc1NC(=O)c1csc(-n2nc(C)cc2C(F)(F)F)n1,-19.1,0.0,-1.6,-17.7,1.8,4.6
Cc1cc(NC(=O)C2CC(=O)N(c3ccccc3Cl)C2)no1 (stereo not given),0.6,0.3,-3.7,14.3,3.8,-0.2
O=C1CSC(c2ccccn2)N1Cc1cn2ccccc2n1 (stereo not given),-22.7,0.2,-14.8,6.1,1.6,-5.7
CC(=O)Nc1nnc(SCC(=O)N2CCc3ccccc32)s1,-0.6,0.4,9.4,-5.5,1.4,3.5
O=C(NCc1nnc2c(C(F)(F)F)cc(Cl)cn12)c1cccs1,-7.5,-0.9,1.0,-0.6,-10.5,-5.3
O=C(CCc1ccccc1)N=C1SC2CS(=O)(=O)CC2N1c1cccc(F)c1 (stereo not given),-5.0,0.3,13.4,-2.4,6.3,0.0
CCOC(CNC(=O)c1nnc(Cc2cc(OC)c(OC)c(OC)c2)o1)OCC,-0.5,-0.4,7.8,19.7,-15.3,7.1
CS(=O)(=O)N(CCC(=O)O)Cc1ccccc1,-29.3,-0.6,6.0,9.8,-0.8,-11.9
Cc1ccc(C(=O)NC2CCS(=O)(=O)C2)cc1S(=O)(=O)N1CCCCCC1 (stereo not given),-2.0,-0.3,16.9,12.5,25.7,-8.2
COc1ccccc1NC(=O)CNC(=O)c1ccc(Br)o1,-19.1,0.2,4.7,17.0,-16.8,x
CON(c1nc(Cl)nc(N(C)C)n1)S(=O)(=O)c1ccc(C)cc1,-1.1,0.3,3.7,-6.9,-13.1,-1.3
O=C1c2ccc([N+](=O)[O-])cc2NC(c2ccco2)N1/N=C/c1ccco1 (stereo not given),8.4,-0.2,-16.2,-11.0,9.3,-6.9
CCc1noc(C)c1C(=O)Nc1ccc(S(=O)(=O)N2CCCC(C)C2)cc1 (stereo not given),-7.3,-0.4,4.7,1.6,-6.7,6.1
NC(=S)NNc1ccnc2cc(Cl)ccc12,-7.1,0.3,-3.3,-8.2,-23.6,-3.2
Cc1ccc(NC(=O)C(=O)NCC2OCCc3ccccc32)cc1 (stereo not given),-1.9,-0.1,0.2,16.1,-12.4,7.0
C=CCn1c(=NC(=O)c2ccc(S(=O)(=O)N3CCCc4ccccc43)cc2)sc2cc(S(N)(=O)=O)ccc21,0.0,0.2,-5.5,-3.3,9.7,2.2
COc1cccc(CNC(=O)Cc2c(C(=O)O)[nH]c3ccccc23)c1,-18.6,-0.3,7.0,-1.3,-11.4,3.2
CCCCCn1nc(-c2ccccc2)c2nc3ccccc3nc21,11.3,4.3,21.6,8.5,6.1,-3.6
O=C(c1ccc(N2CCCC2)c([N+](=O)[O-])c1)N1CCc2ccccc2C1,0.4,6.3,-10.7,10.1,19.8,-21.2
CCOC(=O)c1cnc(SC)nc1Oc1cccc(NC(=O)c2ccc(C)cc2)c1,-3.0,-0.4,8.2,-4.0,-4.8,2.8
CSCCC(NS(=O)(=O)c1ccc(Cl)cc1)C(=O)OCC(=O)NC12CC3CC(CC(C3)C1)C2 (stereo not given),-6.4,0.1,-4.6,-6.8,-3.7,-9.1
O=C1C2C3C=CC(CC3)C2C(=O)N1c1ccc(Br)cc1[N+](=O)[O-] (stereo not given),-2.2,1.3,-1.6,-10.3,-3.9,2.2
O=C(O)/C=C/c1cn(Cc2ccccc2)nc1-c1ccccc1,-6.7,0.0,6.5,23.5,0.4,-3.0
CCC1CCCCN1C(=O)COC(=O)CSc1ccc(C(N)=O)cc1[N+](=O)[O-] (stereo not given),-2.5,-0.8,-0.8,2.6,-12.7,2.8
CCOC(=O)C1=C[C@@H](CC)N(S(=O)(=O)c2ccccc2)[C@H]1c1ccccc1,4.5,3.0,9.9,x,65.1,4.4
COCc1c(C(=O)Nc2ccc(C)c(S(=O)(=O)N3CCOCC3)c2)oc2ccccc12,-18.9,-0.5,-18.2,x,-19.2,u
CCOC(=O)N1CCC(N2Cc3cccc(C(=O)O)c3C2=O)CC1,-3.2,-0.5,4.9,8.1,12.9,0.5
COc1ccccc1Cc1c(-c2ccccc2)nc2cc(C)c(Br)c(C)n12,x,-0.4,-2.1,x,x,-1.8
CCc1ccc(NC(=O)CC2C(=O)N(c3cccc(OC)c3)C(=O)N2CCOC)cc1 (stereo not given),-3.0,0.9,6.0,-5.4,39.2,11.3
CC1=CCC(C(=O)O)C(C(=O)Nc2nc3ccc(S(C)(=O)=O)cc3s2)C1 (stereo not given),-7.1,-0.9,4.6,1.4,-1.9,-5.5
O=C(CSc1nnc(-c2cccnc2)o1)Oc1ccccc1,1.9,1.4,1.6,3.7,-13.4,-26.9
Cc1ccc(N(C)C(=O)n2cnc3ccccc32)cc1,-2.1,-0.4,11.2,0.9,20.5,3.6
CCOc1ccc(NC(=S)N(Cc2ccc(Cl)cc2)Cc2ccco2)cc1,-2.9,-0.6,-4.7,9.7,4.5,-2.2
Cc1ccc(NC(=O)CSc2nc3ccccc3c(=O)n2Cc2cccs2)cc1,2.7,1.9,1.9,-5.1,-4.6,-8.3
C=CCSc1nccc(-c2nn(-c3ccc(C)cc3)ccc2=O)n1,1.4,0.7,-3.4,-6.5,8.6,-4.3
COCCn1c(SCC(=O)Nc2cc(C)on2)nnc1-c1ccccc1,-6.1,-0.5,7.0,4.8,-5.2,0.9
COc1ccc(C(O)c2ncc(-c3cccc4ccccc34)[nH]2)cc1F (stereo not given),-5.4,-0.4,-18.5,x,x,-15.5
CC1=C(C(=O)OCC2CCCO2)C(c2ccsc2)C2=C(CCCC2=O)N1 (stereo not given),-41.3,2.6,6.0,1.4,2.9,4.6
CSc1nc(N)nc(SCC(=O)c2ccccc2)c1C#N,-4.7,0.0,-8.9,5.8,14.8,-2.4
O=C(CSc1nc2ccsc2c(=O)n1NC(=O)c1ccccc1)Nc1nccs1,-2.5,-0.5,-7.0,1.0,5.9,29.8
O=C(c1cc2cc(F)ccc2[nH]1)N1CCN(Cc2ccc3c(c2)OCO3)CC1,-29.3,0.2,-13.5,-15.7,36.4,-23.5
CCCn1c(SCC(=O)Nc2nc(-c3ccc(OC)cc3)cs2)nc2c1c(=O)n(C)c(=O)n2C,27.9,-0.4,19.7,1.6,10.0,3.7
CCN1C(=O)[C@@H]2[C@H](C1=O)[C@@H]1C[C@H]3C(=O)N(CC)C(=O)[C@H]3[C@@H]3C1=C(C(=O)N1C(=O)OC(=NCC4CC4)[C@]31C)[C@@H]2C,-28.3,-0.8,-0.4,27.7,-1.0,4.3
CCC(C)(C)NC(=O)C(c1sccc1C)N(Cc1ccco1)C(=O)c1csnn1 (stereo not given),-4.5,0.2,-7.4,-6.0,-12.2,-8.4
CC1Sc2ccc(C(=O)N3CCCC(C(F)(F)F)C3)cc2NC1=O (stereo not given),3.7,0.2,12.5,-6.6,-15.5,2.1
Brc1cccc(-c2nnc(-c3ccccc3)o2)c1,-8.9,1.7,13.3,0.8,37.5,4.0
COc1cc(N)c(Cl)cc1C(=O)OCC(=O)c1cccs1,-4.2,1.4,2.4,7.7,34.2,-2.4
CCC(C)NC(=O)CSc1c2c(nc3ccccc13)CCCC2 (stereo not given),-0.9,2.2,1.5,2.5,-11.6,12.9
Cc1ccc(S(=O)(=O)Cn2nnnc2C(c2ccccc2)N2CCN(c3ccccc3)CC2)cc1 (stereo not given),-27.1,0.5,-13.5,-4.6,41.8,-8.0
CCc1nnc(NC(=O)CCC(=O)NC2CCCC2)s1,-0.3,3.8,-0.3,17.8,5.1,x
CCN(Cc1nc2cc(Cl)ccc2c(=O)[nH]1)C(=O)c1cc2c(s1)CCCCC2,-12.5,0.6,0.6,2.2,16.0,-2.2
CC(C)c1ccccc1NC(=O)CCc1nc2ccccc2s1,-1.0,-0.4,-1.6,4.2,3.5,-5.1
CCOC(=O)c1c(S(=O)(=O)N2CCC(C)CC2)c(C)n(C)c1C,-8.2,-0.9,-27.1,-3.9,0.6,x
FC(F)(F)c1cc(Oc2ccc(Cl)cc2)ncc1-c1nnc(-c2ccc(Cl)cc2)o1,0.6,-0.4,-20.5,-4.4,6.4,1.7
CN(C)Cc1csc(NC(=O)Nc2ccccc2-c2ccccc2)n1,-5.8,-0.2,0.8,x,u,-18.9
CCC/S(CC1CC1(Cl)Cl)=N\S(=O)(=O)c1ccc(C)cc1 (stereo not given),-17.6,0.7,5.0,4.2,-14.1,3.4
Cc1ccc(Cn2c(-n3nc(C)cc3C)nc3c2c(=O)[nH]c(=O)n3C)cc1,-6.4,0.0,-2.3,1.8,8.9,5.0
# Next structures.
SMILES,D2 PAM,TRPML1 agonist,Six1-Eya2 blk,TRPV1 potentiator,TRPML1 blocker,CtBP-E1A inh
COc1cc(NC(=O)Nc2ccc3c(c2)OCO3)cc(OC)c1OC,-5.6,-0.1,3.6,-17.6,-14.3,-0.6
COc1ccccc1-c1cc(NC(C)=O)c2ncc(-c3cccc(C(C)=O)c3)n2c1,7.4,-0.3,1.4,x,x,20.2
COc1cc(OC)cc(-c2c(-c3cccs3)c3cc(-c4cccc5[nH]ccc45)ccc3n2C)c1,9.2,0.4,3.5,-7.5,12.1,x
Cc1cc2c(c(=O)n1Cc1ccccn1)C(c1ccc3c(c1)OCO3)C(C#N)=C(N)O2 (stereo not given),-7.0,0.0,17.8,-6.8,-4.9,0.0
NS(=O)(=O)c1ccc(-c2ccc(/C=C3\SC(=S)N(C4CCS(=O)(=O)C4)C3=O)o2)cc1 (stereo not given),-4.2,2.1,-10.5,u,5.4,-8.1

# Screening data: PubChem BioAssay, National Center for Advancing Translational Sciences (NCATS)
